NPYLR7 agonist = activates Aedes aegypti NPYLR7 receptor; HEK293T NPYLR7/Galpha15, GCaMP6s calcium fluorescence; activation, % at 10 µM; actives 0.15% (n = 270,000); AID 1259423; in the data active = activation above about 40%;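 note: 0% = vehicle and 100% = reference agonist at the receptor; some compounds past the cut are filed as inactive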
NPYLR7 agonist max-min = also measured in NPYLR7 agonist; calls as there; activation, %; measured here: Max-Min RFU normalised activation; some inactives read as strong as hits;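 span of the calcium signal over five minutes; 0% = vehicle and 100% = native peptide agonist; compound fluorescence can raise it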
* = called active by the depositor; & = joins results of further samples.

SMILES | NPYLR7 agonist max-min | NPYLR7 agonist
Cn1ncc2c(Nc3ccc(Cl)cc3C(=O)c3ccccc3Cl)ncnc21 | -1 | -7
COCC(O)CN(Cc1ccccc1)CC1CC(c2ccc(Cl)cc2)=NO1 (stereo unspecified) | -2 | -3
COc1ccccc1-c1cc(C(=O)N2CCN(Cc3ccc4c(c3)OCO4)CC2)n2nc(-c3ccc(Cl)cc3)cc2n1 | 19 | 18
COCCCn1c(-c2ccccc2)csc1=Nc1cccc(Cl)c1 | -10 | -3
Cc1nn(C)c(Cl)c1S(=O)(=O)NC(C)C1CC1 (stereo unspecified) | 2 | 5
C=CCNC(=O)NC(=O)CSc1nnc(SC)s1 | -5 | -4
CN(C(=O)c1ccc(CSc2ccc3ccccc3n2)cc1)C(c1ccccc1)c1ccccc1 | -10 | 2
O=C(Cn1nc2c(c1NC(=O)COc1ccccc1F)CSC2)NCc1ccccc1 | -2 | -5
CC(C)CNC(=O)c1cc(NC(=O)c2ccccc2Br)ccc1N1CCCC1 | 2 | -5
CN1[C@H]2CC[C@@H]1CN(C(=O)c1ccc(-n3cnnc3)cc1)CC2 | 0 | 2
CCc1noc(C)c1C(=O)N(C)CCCC(=O)O | -1 | 1
COc1ccc(NC(=O)Cn2ccn3nc(-c4ccc(OC)cc4)cc3c2=O)cc1 | 15 | 23
CC(=O)N1N=C(c2ccccc2)OC1(C)CC(=O)Nc1ccccc1 (stereo unspecified) | -3 | -4
COc1ccccc1-c1nc2ccc(Cl)cn2c1NCc1ccccc1 | 9 | 3
O=C(Cc1ccccc1F)N1CCN(S(=O)(=O)c2ccc3c(c2)OCCO3)CC1 | 4 | 6
CC(=O)Nc1ccc(SCCCC(=O)N2CCN(c3ccccc3)CC2)nn1 | 0 | -1
O=C(CSc1ccc(-c2ccc(-n3cccn3)cc2)nn1)N1CCc2ccccc21 | -11 | -6
CC1(Cc2ccc(Cl)cc2)C(=O)Nc2c(Cl)ccc(Cl)c21 (stereo unspecified) | 2 | 4
Cc1ccc(CN(Cc2nc(C(=O)N3CCCCC3)co2)C(C)C(C)C)cc1 (stereo unspecified) | -1 | 4
Cc1c(Cl)cccc1N1C(=O)C2CC=CC(C)C2C1=O (stereo unspecified) | 8 | 12

Three structures out of the list, arranged by SMILES length, ascending:
SMILES | NPYLR7 agonist max-min | NPYLR7 agonist
Cc1c(Cl)cccc1N1C(=O)C2CC=CC(C)C2C1=O (stereo unspecified) | 8 | 12
CC(=O)Nc1ccc(SCCCC(=O)N2CCN(c3ccccc3)CC2)nn1 | 0 | -1
COc1ccc(NC(=O)Cn2ccn3nc(-c4ccc(OC)cc4)cc3c2=O)cc1 | 15 | 23

Returning to the listing, starting 4 compounds before the break.
SMILES | NPYLR7 agonist max-min | NPYLR7 agonist
O=C(CSc1ccc(-c2ccc(-n3cccn3)cc2)nn1)N1CCc2ccccc21 | -11 | -6
CC1(Cc2ccc(Cl)cc2)C(=O)Nc2c(Cl)ccc(Cl)c21 (stereo unspecified) | 2 | 4
Cc1ccc(CN(Cc2nc(C(=O)N3CCCCC3)co2)C(C)C(C)C)cc1 (stereo unspecified) | -1 | 4
Cc1c(Cl)cccc1N1C(=O)C2CC=CC(C)C2C1=O (stereo unspecified) | 8 | 12
O=c1c2c3nc4ccccc4nc3n(-c3cccc(Br)c3)c2ncn1CC1CCCO1 (stereo unspecified) | -3 | -1
CC1(CO)CC2C(O)C(=O)C3(CO)CC3(C)C2C1 (stereo unspecified) | -18 | -11
O=C(N1CCN(Cc2nnnn2-c2ccccc2)CC1)C12CC3CC(CC(C3)C1)C2 | -7 | -8
CCOC(=O)COC1CCN(C(=O)C2CCC2)CC(=O)N(C)c2ccccc21 (stereo unspecified) | 11 | 6
O=C(O)c1ccc2c3c(ccc(C(=O)O)c13)C(=O)NC2=O | -11 | -5
CCOC(=O)CNC(=O)CSc1nc2c(cnn2Cc2cccc(Cl)c2)c(=O)[nH]1 | -2 | -1
Cc1ccc(Oc2cnn(C)c(=O)c2Nc2ccc(C(=O)NC3CC3)cc2)cc1C | 18 | 25
COCCCn1ccc2nc3ccn(-c4ncn[nH]4)c(=O)c3cc2c1=O | 2 | 2
Cc1sc(NC(=O)c2cc3ccccc3oc2=O)c(C(=O)OC(C)C)c1C | -9 | -6
CC1CCCC(NC(=O)Cc2cccc3cccnc23)C1C (stereo unspecified) | 1 | 1
COc1ccccc1CN1C(=O)O[C@@H]2CN(C(=O)Cc3csc(C)n3)C[C@@H]21 | -5 | -1
COc1cccc2ccc(-c3ccc(C(=O)N(C)C)cc3)nc12 | -3 | -3
O=C(CCc1ncc(-c2ccc(Cl)cc2)o1)Nc1ccc(F)c(Cl)c1 | 4 | -1
O=C(NCc1ccccn1)C(C1CCCC1)N1CCN(C(=O)c2cccc(Cl)c2)CC1 (stereo unspecified) | 4 | -3
O=[N+]([O-])c1ccc(Cl)c(S(=O)(=O)N2c3cccc4cccc(c34)S2(=O)=O)c1 | -1 | 0
C=CCN(Cc1ccc(C)s1)C(=O)C1CCCN1S(C)(=O)=O (stereo unspecified) | 16 | 26
Cc1cc(C)c(-c2nc3cc(NC(=O)c4cccs4)ccc3o2)c(C)c1 | 15 | 3
Cc1cc(N2CCN(CC(=O)Nc3ccc(F)c(F)c3)CC2)nc(C(C)C)n1 | 22 | 5
C=CCNC(=O)Cn1c(-n2nc(C)cc2C)nc(CCC)cc1=O | -1 | -3
O=C(CSc1nc2c(c(=O)[nH]1)CCC2)N1CCCCCC1 | 6 | 4
CC(C)(C)OC(=O)Nc1ccc(CC(=O)NNC(=O)CC2CCS(=O)(=O)C2)cc1 (stereo unspecified) | 19 | 10
O=C(Nn1cnc2ccccc2c1=O)c1ccc(N2CCCCC2=O)cc1 | 3 | 3
COc1ccc(C2CC(c3ccc(C)cc3)=NN2C(=O)CN2CCCC2)c(OC)c1 (stereo unspecified) | 12 | 1
CCOC(=O)c1cc([N+](=O)[O-])sc1NC(=O)c1nc2ccccc2s1 | -2 | -6
CCN(CC)C(CNC(=O)N1CCSCC1)CC(C)C (stereo unspecified) | 1 | 3
COC(=O)CCC(=O)NCc1cccc(-c2ncc(-c3ccc(F)cc3)[nH]2)c1 | 8 | 0
CN(CCC(N)=O)Cc1ccccc1-c1ccccc1 | 2 | 5
COc1ccccc1Cn1c(C(=O)NCCN2CCOCC2)cc2ccsc21 | 9 | -3
CCOC(=O)C1(Cc2cccc(OC)c2)CCCN(Cc2csc(C(C)=O)c2)C1 (stereo unspecified) | 15 | 3
Cc1ccccc1OC1CN(C(=O)[C@@H]2C[C@@H](NC(=O)c3ccc(F)cc3)CN2)C1 | 8 | 12
CCCNC(=O)CSc1nc2c([nH]c3ccccc32)c(=O)n1CCOC | -1 | -1
Cc1cc(C(=O)N2CCN(S(=O)(=O)c3ccccc3)CC2)c(C)s1 | 8 | 11
CCOC(=NCc1ccccn1)NC(=O)c1ccc(C(F)(F)F)cc1 | 31 | 23
Cc1noc(-c2ccc3c(c2)OCO3)c1C(=O)NCCc1cccc(Cl)c1 | 0 | -3
COc1ccc(-c2n[nH]c(C)c2-c2ccccc2)c(O)c1 | 7 | 1
CC1CC(C)(C)CCC1NC(=O)c1ncoc1C1CCCO1 (stereo unspecified) | 6 | 9
CC(=O)Nc1ccc(CN2CCc3c([nH]c4ccccc34)C2c2ccccc2C)s1 (stereo unspecified) | -3 | 7
CCN(CC)CCNC(=O)c1c(O)nc2sccn2c1=O | 1 | -3
Cc1ccc(CN(C)C(C)C(=O)Nc2sccc2C#N)cc1 (stereo unspecified) | -9&-3 | -5&-1
CCOCCOc1nc(-c2ccc(F)cc2)n(-c2ccc(NC(=O)c3cccc(OC)c3)cc2)n1 | 19 | 14
COCCCN(CC(=O)N(CCc1c[nH]c2ccccc12)Cc1ccc(Cl)c(Cl)c1)C(=O)c1ccc([N+](=O)[O-])cc1 | 19 | 22
O=C(CSc1nc(=O)n(Cc2ccco2)c2c1CCC2)Nc1ccccc1[N+](=O)[O-] | -4 | -4
Cn1c(Oc2ccc3c(c2)[nH]c2ccccc23)c(C#N)c(=O)n(C)c1=O | -1 | -1
O=C(NCCn1nc(-c2ccco2)ccc1=O)c1cccs1 | 0 | 1
CN(C)c1ccc(CNC(=O)c2ccc(N3CCCCC3=O)cc2)cc1 | -2 | -2
O=C(Nc1ccc(Cl)cc1)C1CC(=O)N(Cc2ccc3c(c2)OCO3)C(=Nc2ccccc2)S1 (stereo unspecified) | -2 | 0
CC(=O)Nc1cccc(NC(=O)CSc2nc3c(-c4ccccc4)c(C)nn3c(=O)[nH]2)c1 | -1 | 5
O=C(NCCc1ccccc1)C(C1CCCC1)N1CCN(C(=O)c2cccc(F)c2)CC1 (stereo unspecified) | -1 | -4
CC(O)(CC(=O)N1CCc2c(cnn2-c2ccc(S(C)(=O)=O)cc2)C1)C(F)(F)F (stereo unspecified) | 22 | 2
CSC1=N/C(=C\c2ccc(F)cc2)C(=O)S1 | -1 | 0
CCCCOc1ccc(-c2nc(C=Nc3ccccc3Cl)c(O)o2)cc1 | 3 | 3
CN(C)C(=O)c1nnc2n1CCN(C(=O)COc1ccccc1)C2 | 1 | 0
O=C(c1ccco1)N(Cc1nccn1Cc1cccc(Cl)c1)CC1CC1 | 10 | 6
CC(OCC1CCCCO1)C(=O)N1c2ccccc2SCC1C (stereo unspecified) | 2 | 1
CCc1noc(C)c1NC(=O)OC(C)(C)C | 655 | 5
CC(C)(C)c1ccc(C2=CSC3=NCCN23)cc1 | 0 | 3
C=CCN(CC#Cc1ccccc1)C(=O)c1ccc(C2CCCN2)s1 (stereo unspecified) | 4 | 8
CCOC(=O)C1=C(CN(C)CC2COc3ccccc3O2)NC(=O)NC1C (stereo unspecified) | 5 | 2
CN1CCC2(CC1)CN(Cc1ccnn1-c1ccccc1)CCCN2C | -7 | -4
CCc1cccc2c(C(CC(=O)O)c3ccccc3C(F)(F)F)c[nH]c12 (stereo unspecified) | 12 | -1

New compounds follow
SMILES | NPYLR7 agonist max-min | NPYLR7 agonist
Cc1nc(C)c(Cc2cccc(C(F)(F)F)c2)c(N2CCN(C(=O)Nc3c(Cl)cccc3Cl)CC2)n1 | 2 | -2
O=C(c1cc(Cl)c2c(c1)OCCCO2)N1CC=C(c2ccc(O)cc2)CC1 | 656 | -8
CCn1nnc2c(SCc3cccc4ccccc34)ncnc21 | 22 | -1
O=C1C2C(C(=O)N1c1ccc(Br)cc1)C1C=CC2C12CC2 (stereo unspecified) | 8 | 13
Cc1cc(C(=O)NC2CCCN(Cc3ccccn3)C2)n[nH]1 (stereo unspecified) | 0 | 1
COc1ccc(-c2nc3cc(C)ccn3c2NC(=O)CCC2CCCC2)cc1 | -1 | -6
CC1CCc2[nH]nc(C3=NC(=Cc4ccccc4)NN3)c2C1 (stereo unspecified) | -2 | -5
OCCN(Cc1ccccn1)[C@@H]1C[C@@H]2CO[C@H](c3ccccc3)C[C@@H]2C1 | 32 | 23
Cc1csc(SCC(=O)NC2CCCc3c2cnn3-c2cccc(C)c2C)n1 (stereo unspecified) | 4 | 5
CCN(Cc1cnn(C)c1)C(=O)c1cc(C)[nH]n1 | -8 | -5
Cc1ccc2sc(NNC(=O)c3ccc(N(C)C)cc3)nc2c1C | -7 | -8
CCCc1nnc2sc(Cc3c(C)nn(-c4ccccc4)c3C)nn12 | -15 | -11
O=C(CCCN1CCC(O)(c2ccc(Cl)cc2)CC1)c1ccc(F)cc1 | -10&-8&-4&-22 | -1&-6&0&0
COc1cc(C(=O)Nc2ccc(-c3nc4ccccc4o3)c(O)c2)cc(OC)c1OC | -13 | -9
Cc1c(C(C)NC(=O)C2CCCN(C(=O)C3CC3)C2)oc2ccccc12 (stereo unspecified) | -3 | 0
O=C(CCN(Cc1ccccc1)c1nc(-c2ccccc2)nc2cc(Cl)ccc12)NCc1ccco1 | 17 | 5
CC(O)c1ccc(NC(=O)c2cnn3c2NC(c2ccco2)CC3C(F)(F)F)cc1 (stereo unspecified) | -11 | -8
Cc1cc(C)c2[nH]c(C(=O)NCCNS(C)(=O)=O)c(C)c2c1 | -2 | 2
CCC1=NN(C(=O)c2cccc([N+](=O)[O-])c2)C(O)(C(F)(F)F)C1 (stereo unspecified) | -19 | -13
CCC(C)N1CCc2c(C)c(C#N)c3nc4ccccc4n3c21 (stereo unspecified) | 3 | 6
CCOCCCn1c(SCc2ccc3ccccc3c2)nc2cc(S(=O)(=O)N3CCCC(C)C3)ccc21 (stereo unspecified) | -5 | -3
Cc1ccccc1NC(=O)CC(=O)N1CCCN(CCCN2CCOCC2)CC1 | 2 | 20
CCN(CC1CCOCC1)C(=O)CC12CC3CC(CC(O)(C3)C1)C2 | 5 | 4
CC(C)Cn1ccnc1-c1ccc(OCC(N)=O)c(Cl)c1 | -9 | -2
Cc1nc(N=C(N)N)nc2ccccc12 | 25 | 26
N#Cc1c(NC(=O)CSc2nnc3n2CCCCC3)sc2c1CCCC2 | -6 | -3
O=C(NCC1Cc2cc(Oc3ccccc3)ccc2O1)c1ccc(F)cc1 (stereo unspecified) | 1 | 2
CC(C)=CC(=O)NCCN1Cc2ccccc2OC(c2ccccc2F)C1 (stereo unspecified) | -1 | -1
COc1ccc(F)c(-c2nccc(N3CCC(O)C3)n2)c1 (stereo unspecified) | 1 | 2
c1ccc(CO[C@@H]2CO[C@H]3[C@@H]2OC[C@@H]3NCC2CCCCC2)cc1 | -13 | -10

Profiles as entered above.
`O=C(NCC1Cc2cc(Oc3ccccc3)ccc2O1)c1ccc(F)cc1` (stereo unspecified) reads NPYLR7 agonist max-min = 1; NPYLR7 agonist = 2
`CC(C)=CC(=O)NCCN1Cc2ccccc2OC(c2ccccc2F)C1` (stereo unspecified) reads NPYLR7 agonist max-min = -1; NPYLR7 agonist = -1

Assay outcomes (PubChem)

Not all compounds are listed (hit frequency here may not be typical).
